# Bioassay records (PubChem)
# MT1-MMP promoter – inhibitors of MT1-MMP promoter transcription, cell-based, luciferase reporter, luminescence (AID 618) | MT1-MMP promoter luciferase reporter cells, luminescence | hit rate 0.62% among 87,000 | calls from a first round at 10 µM; hits with a dose series show EC50 in µM;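 active means over half of the reporter light lost at 10 µM or EC50 under 50 µM; inactive means the rest and hits that failed the dose series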;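 further: actives suppress MT1-MMP promoter-driven transcription so potencies describe inhibitors; HT1080 fibrosarcoma cells; overnight exposure; toxic or luciferase-blocking compounds were not removed from the actives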
# Hsc70 ATP site – Hsc70 inhibitors, probe displacement, primary screen, biochemical, fluorescence polarization (AID 568); Hsc70 fluorescence polarization, probe displacement; higher % means a stronger effect; strong numbers were not always called active; displacement, % at 20 µM, or IC50 in µM where a hit was titrated; 83,000 tested, under 10 active;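 active means displacement above 50% without optical interference and an IC50 on retest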;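 further: ATPase domain with a fluorescein-tagged ATP probe; 0% = vehicle and 100% = excess ADP; read after one hour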
# WNV protease inh – WNV NS2B-NS3 proteinase inhibition | z-score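 (tested at a level between 10 and 100 µM)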 | AID 577 | hit rate 0.18% among 65,000 | P06935 | WNV NS2B-NS3 protease, fluorogenic substrate Ex360/Em465; hits give low values;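 active means z-score at -3 or under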;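 further: score is relative to mean and spread of the compound wells of a plate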
# Target sequence (P06935 1371-1501 limits assumed): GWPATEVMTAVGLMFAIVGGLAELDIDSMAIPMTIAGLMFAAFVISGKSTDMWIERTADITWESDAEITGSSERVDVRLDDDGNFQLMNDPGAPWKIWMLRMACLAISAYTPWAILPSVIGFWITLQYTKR
# Target sequence (P06935 1502-1679 limits assumed): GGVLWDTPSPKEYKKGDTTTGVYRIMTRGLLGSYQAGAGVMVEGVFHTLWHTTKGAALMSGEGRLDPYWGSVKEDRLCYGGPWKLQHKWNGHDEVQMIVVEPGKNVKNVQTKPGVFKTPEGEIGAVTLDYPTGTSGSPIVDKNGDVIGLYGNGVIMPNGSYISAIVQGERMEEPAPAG
# Numbers without * were called inactive; i = inactive; nt = no result given.
SMILES,MT1-MMP promoter,Hsc70 ATP site,WNV protease inh
CCC(C(=O)O/N=C(\N)c1ccccc1)c1ccccc1 (stereo not given),i,-5.2%,nt
CCCn1c(SCC(=O)c2cc(C)ccc2C)n[nH]c1=O,i,-4.3%,nt
O=C(Nc1ccccc1C(=O)O)c1ccccc1,i,-0.4%,nt
Cn1c(=O)c2c(SCc3cccnc3)nc(C3CC3)nc2n(C)c1=O,i,2.4%,1.63
CCOC(=O)C1CCCCN1Cc1ccc(OC)c(OC)c1OC (stereo not given),i,-11.0%,-0.06
Cn1cccc1Cc1nnc(SCC(=O)Nc2ccc(Cl)cc2)n1-c1ccc(F)cc1,i,0.1%,-0.13
CCOC(=O)C1=C(C)NC(=O)NC1C1CC=CCC1 (stereo not given),i,3.2%,0.32
Cc1cccc(NCc2nc(-c3ccccc3)no2)c1,i,5.2%,-0.53
COc1ccc(Cc2nnc(SCC(=O)NCCc3ccccc3)o2)cc1,i,6.8%,0.58
Cc1nn(CC(=O)N2CCOCC2)c(=O)c2ccccc12,i,-4.5%,0.17
CCOc1ccc2nc(N3CCC(C(=O)N4CCN(C(=O)c5ccco5)CC4)CC3)sc2c1,i,2.4%,1.07
Cc1nn(C)c(C)c1S(=O)(=O)N(CC(=O)NCc1cccs1)c1ccc(C(C)C)cc1,i,4.7%,-1.42
COC(=O)c1c(C(=O)OC)c(C)n(Cc2ccco2)c1C,i,-4.1%,-0.52
Cc1nc(SCC(=O)N(C)C2CCCCC2)[nH]c(=O)c1Cc1ccccc1,i,-1.9%,nt
CCc1cccc2c(C(=O)COC(=O)c3c(C)noc3C)c[nH]c12,i,0.7%,nt
CCc1cccc2c(C(=O)COC(=O)c3nn(C)c(=O)c4ccccc34)c[nH]c12,i,-16.7%,nt
O=C1CC(c2ccc3c(c2)OCO3)c2cc3c(cc2N1)OCCO3 (stereo not given),i,-0.3%,0.75
COc1ccc(S(=O)(=O)Nc2cc(C(C)C)c(O)cc2C)cc1,i,-1.0%,0.28
CCCc1nc(SCC(=O)Nc2ccc(N3CCOCC3)cc2)c2ccccc2n1,i,-2.2%,nt
CCN(CC)S(=O)(=O)c1cccc(NC(=O)c2cc3ccccc3o2)c1,i,-13.2%,nt
COc1ccc(C(=O)Oc2c(C)occc2=O)cc1OC,i,-3.5%,-0.75
CCOC(=O)CCNC(C)C1COc2ccccc2O1 (stereo not given),i,1.0%,0.91
O=C(NCC1CCCO1)C1c2ccccc2C(=O)N1C1CCCCCC1 (stereo not given),i,-0.4%,-0.34
CCc1nc(C)cn1S(=O)(=O)c1cc(Cl)c(OC)cc1Cl,i,2.2%,nt
CCN1CCN(c2nc3sc4c(c3c(=O)n2-c2ccc(OC)cc2)CCCCC4)CC1,i,3.6%,nt

# Random excerpt: 6 records from the list.
SMILES,MT1-MMP promoter,Hsc70 ATP site,WNV protease inh
COC(=O)c1c(C(=O)OC)c(C)n(Cc2ccco2)c1C,i,-4.1%,-0.52
O=C(NCC1CCCO1)C1c2ccccc2C(=O)N1C1CCCCCC1 (stereo not given),i,-0.4%,-0.34
CCCn1c(SCC(=O)c2cc(C)ccc2C)n[nH]c1=O,i,-4.3%,nt
CCOc1ccc2nc(N3CCC(C(=O)N4CCN(C(=O)c5ccco5)CC4)CC3)sc2c1,i,2.4%,1.07
CCN1CCN(c2nc3sc4c(c3c(=O)n2-c2ccc(OC)cc2)CCCCC4)CC1,i,3.6%,nt
CCc1cccc2c(C(=O)COC(=O)c3c(C)noc3C)c[nH]c12,i,0.7%,nt

# Next section
SMILES,MT1-MMP promoter,Hsc70 ATP site,WNV protease inh
CCCSC1=C(C#N)C(c2ccc(OC)cc2)C2=C(CC(C)(C)CC2=O)N1 (stereo not given),i,-5.6%,0.61
CCOc1ccc(-n2cc(C(=O)Nc3cccc(C)n3)c3cc(OC)c(OC)cc3c2=O)cc1,i,0.3%,0.5
N#Cc1nc(-c2ccccc2F)oc1NC1CCCCC1,i,0.5%,-0.44
Cc1cccc(C(=O)NCc2nnc(SCC(=O)N3CCN(c4ccccc4)CC3)n2C)c1,i,-2.0%,0.25
Cc1cccnc1NCc1ccc(O)c2ncccc12,i,5.8%,3.91
COC(=O)C1=C(CSc2nc3ccccc3o2)NC(=O)NC1c1cc(C)ccc1C (stereo not given),i,2.2%,0.43
O=C1OC(c2ccc(Br)cc2)=N/C1=C\N1CCCCC1,i,-0.5%,-0.00392
CCCCc1c(O)nc(SCC(=O)N2CCCCC2)n(-c2ccccc2C)c1=O,i,11.0%,-0.81
CCCCN1C(=O)c2ccccc2C1C(=O)NC1CCCC1 (stereo not given),i,-2.2%,-0.33
Cc1ccc(C)c(NC(=O)CSc2nc3c(c(=O)n2C)SC(C)C3)c1 (stereo not given),i,1.8%,-0.49
O=C(O)Cc1ccc(NC(=O)c2ccc(NC(=O)c3ccco3)cc2)cc1,i,0.7%,nt
CCOC(=O)CSc1nnc2n1C(C)(C)Cc1ccccc1-2,i,-2.1%,1.06
CCOC(=O)C1CCCN(S(=O)(=O)Cc2ccccc2)C1 (stereo not given),i,-0.7%,1.64
CNc1cc([N+](=O)[O-])ccc1N/C=C/C(=O)c1cccs1,i,1.3%,nt
CC(=O)c1ccc(NC2OC(CO)C(O)C(O)C2O)cc1 (stereo not given),i,6.7%,1.47
COc1cccc(CNc2nn[nH]n2)c1OC,i,4.4%,0.52
O=C(CCn1c(=S)[nH]c2ccccc2c1=O)NCCCN1CCCC1=O,i,-10.1%,0.95
CCCCNC(=O)CCCCCNS(=O)(=O)c1ccc(OC)cc1,i,3.8%,0.26
Cc1ccc(C2CC(=O)NC(SCc3ccccc3)=C2C#N)o1 (stereo not given),i,-8.5%,0.86
CN1CCN(c2nc3c(c(=O)[nH]c(=O)n3C)n2Cc2cccc3ccccc23)CC1,i,1.9%,0.44
CCCCCC(=O)N1CCN(CCN=CC2=C(O)CC(c3cccs3)CC2=O)CC1 (stereo not given),i,-1.4%,nt
CCCOc1ccc(Cn2c(C)nc([N+](=O)[O-])c2SCC(O)COC)cc1[N+](=O)[O-] (stereo not given),i,0.7%,nt
CCN(CC)S(=O)(=O)c1ccc(NC(=O)c2c(-c3ccccc3)noc2C)cc1,i,-1.0%,-0.61
Nc1c(C(=O)NCCc2ccccc2)nnn1Cc1ccc(Cl)cc1,i,2.6%,nt
COc1ccc(-c2nnn(CC(=O)N(CC(=O)NC3CCCC3)c3cccc(C)c3)n2)cc1OC,i,-3.6%,0.62
# Other structures
SMILES,MT1-MMP promoter,Hsc70 ATP site,WNV protease inh
O=C(NCCCN1CCN(CCCNC(=O)c2ccccc2F)CC1)c1ccccc1F,i,2.7%,-0.67
COc1ccc(NC(=O)C2CC(=O)NC3=C2C(=O)CC(C)(C)C3)cc1 (stereo not given),i,0.6%,nt
Cc1sc(NC(=O)c2ccc(Cl)s2)c(C(N)=O)c1C,i,-1.2%,-1.7
O=C(Nc1nccs1)c1cccc(S(=O)(=O)N2CCOCC2)c1,i,1.3%,-0.06
COc1ccccc1NC(=O)CSCC(N)=O,i,-0.3%,-0.56
O=S(=O)(NCc1ccco1)c1cccc(S(=O)(=O)N2CCCCC2)c1,i,-7.9%,-0.1
CCN1CCN(CC(=O)Nc2ccc3c(c2)OCCO3)C(=O)C1=O,i,2.5%,0.26
CCOC(=O)c1c(NS(=O)(=O)Cc2ccccc2)sc2c1CCCC2,i,0.1%,nt
CCSc1nc2c(c(=O)n1Cc1ccccc1)SC(C)C2 (stereo not given),i,0.3%,1.19
COC(=O)c1sc(NC(=O)c2cnccn2)c(C(=O)OC)c1C,i,4.1%,0.67
O=C(Nc1ccccc1)Nc1cccc(Cl)c1,i,4.2%,nt
CCCC(=O)N1c2ccccc2NC2=C(C(=O)CCC2)C1c1ccc(F)cc1 (stereo not given),i,3.6%,-0.47
N#Cc1nc(-c2ccc(Cl)cc2)oc1NCc1cccc2c1OCO2,i,-8.1%,-1.84
COC(=O)c1ccc(NC(=O)c2cc3sccc3n2C)cc1,i,2.6%,nt
CCNCCNC(=O)c1c(O)c2c([nH]c1=O)CCCC2,i,-2.9%,-0.98
Cc1ccc(OCC(O)CN2C(=O)NC(C)(C)C2=O)cc1C (stereo not given),i,-0.3%,0.28
Cc1cc(C(=O)N2CCN(Cc3ccc4c(c3)OCO4)CC2)on1,i,2.9%,0.31
COc1ccccc1N1CCN(C/C(C)=C/c2ccccc2)CC1,i,-7.7%,-0.7
CCNC(=O)COc1cc(C)c(Cl)c(C)c1,i,1.4%,nt
Nc1ncc(Br)cc1S(=O)(=O)NCCC(=O)N1CCN(c2ncccn2)CC1,i,2.4%,-0.77
COc1cccc(C2NC(C)(C(=O)O)C3C(=O)N(C(C)C)C(=O)C23)c1O (stereo not given),i,-1.2%,-0.57
c1cnc2c(OCc3nc4ccccc4[nH]3)cccc2c1,i,-5.4%,-0.33
COc1ccc(CCNc2nc3c(c(=O)n(C)c(=O)n3C)n2C)cc1OC,i,5.6%,1.15
COc1ccc(OC)c(NC(=O)CC2C(=O)NCCN2C(=O)Nc2cccc(Cl)c2)c1 (stereo not given),i,3.4%,nt
COc1ccccc1NC(=O)N1CCCC(C(=O)Nc2cccc(C)c2C)C1 (stereo not given),i,-0.8%,-0.91

# Structural class, the compounds so far with bromine.
SMILES,MT1-MMP promoter,Hsc70 ATP site,WNV protease inh
O=C1OC(c2ccc(Br)cc2)=N/C1=C\N1CCCCC1,i,-0.5%,-0.00392
Nc1ncc(Br)cc1S(=O)(=O)NCCC(=O)N1CCN(c2ncccn2)CC1,i,2.4%,-0.77

# (continued)
SMILES,MT1-MMP promoter,Hsc70 ATP site,WNV protease inh
CC(=O)c1ccc(S(=O)(=O)NCCCC(=O)NCCc2ccccn2)cc1,i,-1.0%,0.07
CCCc1nc2sc3ccccc3c(=O)c2c(=O)n1Cc1ccco1,i,4.6%,0.94
COc1ccccc1N1CCN(CC(O)COc2c(OC)cccc2OC)CC1 (stereo not given),i,-1.3%,-0.52
CC(C)Cn1c(CCC(=O)O)ccc1-c1cccs1,i,-0.2%,-0.42
O=C1CC(c2ccccc2)n2nc(N3C(=O)c4ccccc4C3=O)nc2N1 (stereo not given),i,-2.9%,0.91
CN(CC(=O)NC1CCCCCC1)S(=O)(=O)c1ccccc1,i,0.1%,-0.92
COCCCN1C(=O)C(=O)/C(=C(/O)c2ccc(OC(C)C)cc2)C1c1ccc(O)c(OC)c1 (stereo not given),i,4.4%,-0.11
CC1(C)O[C@@H]2C[C@H]3[C@@H]4C[C@H](F)C5=CC(=O)CC[C@]5(C)[C@H]4[C@@H](O)C[C@]3(C)[C@]2(C(=O)CO)O1,i,0.1%,0.9
CCOC(=O)c1nnn(-c2nonc2N)c1CN(C)Cc1ccccc1,i,4.1%,-0.00839
O=C(Nc1ccc(N2CCOCC2)c(Cl)c1)c1ccc(Br)o1,i,5.5%,0.32
COc1ccc(-n2c(N)c(C(=O)NCc3ccco3)c3nc4ccccc4nc32)c(OC)c1,i,-3.7%,-0.08
CCOC(=O)c1cc2sccc2n1CC(=O)N1CCCC1,i,-4.6%,1.21
O=C(N1CCCCC1)N1CCN(C(c2ccccc2)c2ccccc2)CC1,i,-4.3%,nt
CCOC(=O)c1cc(OC(=O)c2ccccc2Br)n(-c2ccccc2)n1,i,3.5%,nt
N#Cc1nc(COc2ccc(F)cc2)oc1NCCCn1ccnc1,i,-2.8%,0.26
CCOC(=O)c1cnc(SC)nc1N,i,3.2%,nt
CCOC(=O)Cc1nn(CCc2ccccn2)c(=O)c2ccccc12,i,0.3%,-1.04
O=C(c1c(O)c2ccccc2oc1=O)C1CCCCC1,i,-1.3%,nt
CCC(Sc1n[nH]c(=O)[nH]c1=O)C(=O)OCc1ccccc1 (stereo not given),i,2.6%,nt
COc1cc(-c2cc(C(=O)N3CCN(c4ccccn4)CC3)c3ccccc3n2)cc(OC)c1OC,i,1.0%,0.45
C1CNCCNCCNCCN1,i,-5.7%,1.48
CCOc1ccccc1N1CCN(Cc2cccc(OC)c2OC)CC1,i,1.8%,-0.32
COC(=O)c1cn(N(C)c2ncc(C(F)(F)F)cc2Cl)c(=O)c2ccccc12,i,1.2%,nt
CCCN(CCC)c1ncnc2nc[nH]c12,i,-5.1%,0.71
CCCCCCOc1cccc(N)c1,i,3.4%,-0.27
# Following part:
SMILES,MT1-MMP promoter,Hsc70 ATP site,WNV protease inh
Cc1cc(-c2ccccc2)nn1-c1nc2c(c(=O)[nH]c(=O)n2C)n1C,i,0.0%,-0.37
CCn1c(SCC(=O)Nc2nc3ccc(OC)cc3s2)nnc1-c1ccoc1C,i,1.3%,2.72
O=C(NCCCN1CCOCC1)c1ccc(CS(=O)(=O)c2ccc(Br)cc2)o1,i,3.7%,-1.35
COC(=O)c1sc(S(=O)(=O)N2CCCCC2)c(C(=O)OC)c1C,i,2.6%,0.03
c1ccc(-n2c(SCC3CCCCO3)nnc2-c2cccs2)cc1 (stereo not given),i,1.5%,-1.68
Clc1ccc(-c2csc(NNC3=NCCCCC3)n2)cc1,i,-6.3%,nt
CCCn1c(NCc2ccccn2)nc2ccccc21,i,1.7%,nt
COc1cccc(CN(CC(=O)NCC2CCCO2)C(=O)CNS(=O)(=O)c2ccccc2)c1 (stereo not given),i,-7.6%,nt
Cc1ccc(NC2=NCC(=O)N2Cc2ccc3c(c2)OCO3)cc1,i,-2.0%,-0.91
Oc1c(Cl)cc(Cl)cc1Sc1cc(Cl)cc(Cl)c1O,i,11.6%,-0.4
CC(=O)Nc1ccc(S(=O)(=O)N2CCN(c3nc(NC4CCCC4)c4ccccc4n3)CC2)cc1,i,0.9%,-0.11
NC(=O)NCC12CC3CC(CC(C3)C1)C2,i,-2.3%,-0.72
